Assay outcomes: PubChem BioAssay, Center for Chemical Genomics, University of Michigan
HIV TAR-Tat = HIV-1 TAR-Tat binding disruption. 100,000 tested, 0.6% active. HIV-1 TAR RNA, Tat peptide displacement FRET; stronger effect = higher value. z-score (no concentration beside the values). AID 1259389;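 also: score is relative to mean and SD of negative controls; some compounds called inactive have numbers as strong as hits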
CDC25B CDK2 inh = human CDC25B-CDK2/CyclinA binding inhibition | HTRF CDC25B-CDK2/CyclinA binding, anti-His/anti-Flag; stronger effect = higher value | z-score (no concentration beside the values) | 94,000 tested, 0.72% active | AID 1259370;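 also: score is relative to mean and SD of negative controls; strong numbers were not always called active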
An asterisk follows results filed as active; · = not tested or not shown.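 The calls were made as follows: active = z-score from 3 up in half or more of its runs; inactive = the rest.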

SMILES	HIV TAR-Tat	CDC25B CDK2 inh
CCCSCCCNC(=O)C1CCN(c2nnc(N3CCCC3=O)s2)CC1	2.17	-2.72
COc1cc(C2Nc3ccc4ccccc4c3C3=C2C(=O)CC(C)(C)C3)cc(OC)c1OC (stereo not drawn)	·	-0.22
Cc1cc(C)c(C(N)=O)c(CC(C)(C)C(=O)O)c1	·	0.83
O=C(Cn1ncn2c(cc3sccc32)c1=O)N1CCCCCC1	·	-1.94
COc1ccc(-c2n[nH]c3c2C(c2cccc(OC)c2)NC3=O)cc1 (stereo not drawn)	1.28	·
O=C(CCCN1C(=O)c2cccnc2Sc2ccccc21)NC1CCCCC1	-0.78	·
Cc1cc(-c2ccc(S(=O)(=O)NCCc3cccs3)s2)on1	-0.12	·
CCOC(=O)Cc1c(C)[nH]c(=O)[nH]c1=O	1.18	-1.82
COc1ccc(OC)c(NC(=O)c2cc3c(=O)n4ccccc4nc3n2C)c1	1.88	·
CC1(C(=O)NC2CCCC2)Cn2c(cc3ccccc32)C(=O)N1Cc1cccs1 (stereo not drawn)	0.83	·
Cc1ccc(-c2noc3ncnc(N(C)CC(=O)O)c23)cc1	0.92	1.15
COc1cccn(Cc2nnc(SCc3ccc(Cl)cc3)n2C)c1=O	·	-1.34
CCN(CC)C(=O)c1sc(NC(=O)c2cc(-c3ccc(C)o3)nc3ccccc23)c(C(N)=O)c1C	8.51*	0.85
O=S(=O)(Nc1ccc(Cl)cc1)c1ccc(-c2cnc(C3CC3)o2)cc1	0.22	·
NS(=O)(=O)c1ccc(NC(=O)c2cnc3ccccn3c2=O)cc1	-0.02	-1.49
O=C1OC(c2ccccc2)c2ccccc21 (stereo not drawn)	-1.22	2.36
CCc1[nH]c(=S)[nH]c(=O)c1C#N	·	-0.98
Cc1cc(C)nc(N2CCC(NC(=O)C3CCN(c4cnccn4)CC3)CC2)n1	1.52	-0.17
COC(=O)c1cc(S(=O)(=O)N2CCN(c3c(Cl)cncc3Cl)CC2)oc1C	·	-1
CCCCOC(=O)Nc1sc(C)c(C)c1C(=O)OCC	0.11	-0.23
O=C(CCCN1C(=O)c2cccc3cccc(c23)C1=O)NC1CCS(=O)(=O)C1 (stereo not drawn)	-0.18	0.11
COc1ccc(CN2CCc3nc(N4CCN(c5ncccn5)CC4)ncc3C2)c(OC)c1	-0.34	·
CN1CCN(CCNC(=O)CCc2nnc3ccc(N4CCCC4)nn23)CC1	0.48	·
Cc1ccc(C)c(S(=O)(=O)Nc2ccc3oc(C)c(C(=O)O)c3c2)c1	14.3*	0.27
C#CCOc1ccc(C2C(C#N)=C(N)Oc3cc(O)ccc32)cc1OCC (stereo not drawn)	-2.98	-1.62
CSc1nc2n(n1)C(c1ccc(C)cc1)C1=C(CC(C)(C)CC1=O)N2 (stereo not drawn)	0.83	-0.78
COc1cccc(-c2nc(SCc3cc(=O)n4nc(C5CC5)sc4n3)n[nH]2)c1	-0.44	·
CCN(CC)CC(O)Cn1c2c(c3ccccc31)CCN(C)C2=O (stereo not drawn)	·	-0.5
Cc1ccc(CN(C(=O)c2oc3cc(C)c(C)cc3c2C)c2ccccn2)o1	1.81	-2.08
CCCN1CCN(c2ncc3c(n2)CCN(Cc2ccc(Br)cc2)C3)CC1	-0.03	·
CCOc1ccc(-c2ccc(NS(=O)(=O)c3ccc(Cl)cc3)cc2)nn1	1.03	·
COc1ccc(NCC(O)Cn2c3ccccc3c3ccccc32)c(OC)c1 (stereo not drawn)	1.1	-1.28
CC(C)C(NS(=O)(=O)c1cccs1)C(=O)N1CCOCC1 (stereo not drawn)	-0.95	·
C=CCOC(=O)c1sc(N2C(=O)c3oc4ccccc4c(=O)c3C2c2cccc(OC)c2)nc1C (stereo not drawn)	1.54	-0.27
CCN(CC)c1ncnc2c1sc1nc(-c3ccco3)c3c(c12)CC(C)(C)OC3	-0.29	-1.62
CC(C)c1ccc(N2C(=O)N(Cc3cc(=O)n4ccccc4n3)c3ccccc3S2(=O)=O)cc1	1.56	·
COc1ccc(-c2nc(SCc3cc(=O)c4c(C)ccc(C)c4[nH]3)n[nH]2)cc1	-0.65	·
Cc1ccc(NC2=NC3(CCCCC3)N=C(N)N2)c(C)c1	·	-1.18
C=CCNC(=O)C1CC(c2cnn(CC)c2C)=NO1 (stereo not drawn)	0.65	-1.34
CC1CCN(S(=O)(=O)c2ccc3c(c2)N(CC(=O)NCc2cccs2)C(=O)CS3)CC1	·	-2.24
Cc1noc(C)c1S(=O)(=O)Nc1ccc(-c2nnc(-c3ccccc3)o2)cc1	1.67	·
Cc1ncc(-c2ccc(C)c(S(=O)(=O)Nc3cc(Cl)ccc3C)c2)o1	1.54	·
O=C(CCc1nnc2ccc(N3CCCC3)nn12)Nc1ccccc1F	0.43	·
Cc1cccc(CN2N=NC3C(=O)N(c4ccccc4)C(=O)C32)c1 (stereo not drawn)	0.53	-0.32
CCOC(=O)C1=C(N)Oc2ccc3ccccc3c2C1c1ccncc1 (stereo not drawn)	·	0.34
CCN(CC)CCn1c(C)c(C)c2c1ncn1nc(-c3ccccc3Cl)nc21	0.63	-1.83
COCCCNC(=O)Cn1cnc2sc(C)c(S(=O)(=O)N3CC(C)CC(C)C3)c2c1=O (stereo not drawn)	·	-0.03
CCOC(=O)c1sc2ncn3c(-c4ccccc4)nnc3c2c1C	1.68	-1.97
CC1=CCC2C(=O)N(c3ccc4ccccc4n3)C(=O)C2C1 (stereo not drawn)	-0.18	-0.44
COc1cccc(-n2cc[nH]c(=S)c2=O)c1	-0.35	0.6

Some of the entries so far, with two lines to a compound.
Under each structure – HIV TAR-Tat	CDC25B CDK2 inh
Cc1cccc(CN2N=NC3C(=O)N(c4ccccc4)C(=O)C32)c1 (stereo not drawn)
→ 0.53	-0.32
CCN(CC)CCn1c(C)c(C)c2c1ncn1nc(-c3ccccc3Cl)nc21
→ 0.63	-1.83
COc1cccc(-n2cc[nH]c(=S)c2=O)c1
→ -0.35	0.6

More compounds
SMILES	HIV TAR-Tat	CDC25B CDK2 inh
O=C(NC1CCCCC1)c1nc(-c2ccncc2)no1	0.57	·
Cn1c(=O)[nH]c(=O)c2c1nc(Sc1ncccn1)n2CCCc1ccccc1	-0.63	-1.26
Cn1cc(Cc2nnc(NC(=O)COc3ccccc3)s2)c2ccccc21	0.33	·
COc1ccc(/C=C(\C#N)C(N)=S)cc1	·	1.55
CS(=NC(=O)c1cccc(Cl)c1)c1ccc(OC(=O)c2ccc(Cl)cc2)cc1 (stereo not drawn)	·	-1.58
O=C(CC1(O)C(=O)Nc2ccccc21)c1ccncc1 (stereo not drawn)	0.29	0.54
CCOc1ccc(CNc2nc3ccc(Cl)cc3n3cnnc23)cc1OC	-1.21	-1.12
CC(C)CCN[C@H]1CS(=O)(=O)C[C@@H]1S(=O)(=O)c1ccc(F)cc1	-0.25	-0.32
Cc1ccccc1CNCc1cnc(N(C)C)nc1	0.91	·
COC(=O)c1ccc(C)c2c1C1C=CCC1[C@@H](c1ccc(C(=O)O)cc1)N2 (stereo partly drawn)	-0.89	-2.34
O=C(NCCn1cnc2cc(C(=O)N3CCCC3)ccc21)Nc1ccc2c(c1)OCCO2	2.15	·
CCOc1ccc(CNc2ncc(-c3ccc(Br)cc3)n2C)cc1	-0.88	-0.72
CCc1cccc(-n2nnc(-c3nc(-c4ccc5c(c4)OCO5)no3)c2N)c1	0.27	·
CSc1ccc(C(c2oc3ccccc3c2NC(=O)c2ccco2)N2CCOCC2)cc1 (stereo not drawn)	0.22	-1.27
Cc1ccc(-c2nc3c[n+](CC(N)=O)ccn3c2Nc2c(C)cccc2C)s1	-3.37	-0.38
O=C1Nc2ccccc2C12NNC(=S)NN2	·	-2.44
CCOC(=O)NC(=S)NCCc1c[nH]c2ccccc12	·	-0.07
CCc1cc(N2CCN(c3ccc(C)cc3C)CC2)n2ncnc2n1	0.65	-0.89
Cc1ccc(S(=O)(=O)n2nc(-c3cccc(C)c3)nc2N)cc1	-1.01	0.32
O=c1c(N2CCCCC2)c(N2CCCCC2)c1=O	·	-0.31

Pulled by compound from the list above (three):
SMILES	HIV TAR-Tat	CDC25B CDK2 inh
CCOC(=O)NC(=S)NCCc1c[nH]c2ccccc12	·	-0.07
Cc1ccc(S(=O)(=O)n2nc(-c3cccc(C)c3)nc2N)cc1	-1.01	0.32
CCc1cccc(-n2nnc(-c3nc(-c4ccc5c(c4)OCO5)no3)c2N)c1	0.27	·

The listing continues:
SMILES	HIV TAR-Tat	CDC25B CDK2 inh
C#CCC1(CC#C)C(=O)OC(C)(C)OC1=O	·	-0.69
O=C(Cn1ncc2ccccc21)Nc1ccc(Br)cn1	·	1.18
Cc1ccc(-c2n[nH]c(=O)c3ccccc23)cc1S(=O)(=O)N1CCCCC1	·	-1.12
CC(C)CCN[C@H]1CS(=O)(=O)C[C@@H]1S(=O)(=O)c1ccccc1	0.34	-1.63
CCOCCn1c(=O)c2c(nc3n2CCN3c2ccc(Cl)cc2)n(C)c1=O	2.06	·
COC(=O)c1c(NC(=O)CN2C(=O)c3ccccc3S2(=O)=O)sc2c1CCCC2	·	-1.22
CCOC(=O)N1CCC(N2C(=O)c3ccccc3C2Nc2ccc(Br)cc2)CC1 (stereo not drawn)	-1.04	-0.91
O=C(CN1C(=O)CCc2cc(S(=O)(=O)N3CCCCC3)ccc21)N1CCOCC1	-0.21	·
CCc1nc2ccccc2n1Cc1c(F)cccc1Cl	-1.06	0.03
Cc1ccc(C(NC(=O)C(C)C)c2cc(Cl)c3cccnc3c2O)cc1 (stereo not drawn)	0.76	-1.42
COCCc1nn2c(=O)cc(COC(=O)c3ccc(C)cc3)nc2s1	0.77	·
COc1ccc(Cc2nc3c4cnn(-c5cccc(Br)c5)c4ncn3n2)cc1	1.99	-1.42
CCC(O)c1nc2ccccc2n1Cc1ccc(Br)cc1 (stereo not drawn)	-0.3	-1.53
CC(=O)N1CCc2cc(S(=O)(=O)CCC(=O)NCC3CCCO3)ccc21 (stereo not drawn)	-1.04	·
Cc1ccccc1NC(=O)C1CC2CCCN2C12C(=O)Nc1ccccc12 (stereo not drawn)	0.86	·
CCCCC1CCC(C(=O)NCC(c2ccco2)N2CCCC2)CC1 (stereo not drawn)	-0.34	-0.57
O=C1C2C(c3ccc(F)cc3)NC(Cc3ccccc3)(C(=O)O)C2C(=O)N1c1ccc(F)cc1 (stereo not drawn)	1.08	0.65
CC1=NCCNC(C)=C1Sc1ccccc1	·	-0.29
Fc1ccc(C(Nc2ccc3c(c2)OCO3)c2nnc(-c3ccccc3)o2)c(Cl)c1 (stereo not drawn)	0.58	·
O=C(Oc1ccc2c(c1)OCC2=O)c1cccs1	·	-2.09
Cc1cccc(N(C)c2c(-c3ccc4c(c3)OCC(=O)N4)c(=O)c2=O)c1	0.24	·
Cc1ccc2oc3c(c(=O)c2c1)C(c1ccncc1)N(CCCN1CCOCC1)C3=O (stereo not drawn)	-0.25	·
O=C(/C=C/c1cccc([N+](=O)[O-])c1)N1CCN(c2cccc(Cl)c2)CC1	·	-2.24
CC(Cc1ccco1)NC(=O)c1cc2ccccn2n1 (stereo not drawn)	0.37	·
Cc1ccc(N=NN(CC(O)C(O)C(O)CO)c2ccc(C)c(C)c2)cc1C (stereo not drawn)	·	0.14
COc1ccc(OC)c(Nc2nc(Nc3ccc(OC)c(Cl)c3)c3cnn(C)c3n2)c1	-0.26	·
O=C(Nc1ccc(Cl)c(Cl)c1)Nc1nnc(-c2ccc(Br)cc2)s1	·	-7.74
COc1ccc(NC(=O)CSc2ccc(-c3cccs3)nn2)cc1OC	2.72	·
O=C1C2CCCN2C(c2cccs2)N1c1cccc(Cl)c1 (stereo not drawn)	0.42	-1.69
Cn1cccc1Cc1nnc(SCC(=O)NC2CCCC2)n1-c1ccc(F)cc1	0.39	0.34

Profiles from above. Screens in order: HIV TAR-Tat, CDC25B CDK2 inh
Listed for Cn1cc(Cc2nnc(NC(=O)COc3ccccc3)s2)c2ccccc21 = 0.33, ·
Listed for Cc1ccc(C(NC(=O)C(C)C)c2cc(Cl)c3cccnc3c2O)cc1 (stereo not drawn) = 0.76, -1.42
Listed for Cc1ccc(CN(C(=O)c2oc3cc(C)c(C)cc3c2C)c2ccccn2)o1 = 1.81, -2.08
Listed for O=C1Nc2ccccc2C12NNC(=S)NN2 = ·, -2.44
Listed for O=C1C2CCCN2C(c2cccs2)N1c1cccc(Cl)c1 (stereo not drawn) = 0.42, -1.69

New compounds follow:
SMILES	HIV TAR-Tat	CDC25B CDK2 inh
COc1cc2ncc(S(=O)(=O)c3ccccc3)c(N3CCCC(C)C3)c2cc1OC (stereo not drawn)	-0.45	2.8
Cn1c(=O)[nH]c(=O)c2c1nc(N1CCCC1)n2CC(O)COc1ccc(Cl)cc1 (stereo not drawn)	·	-0.77
CC(=O)N/C(=C\c1ccc(NC(C)=O)cc1)C(=O)O	·	0.91
CCCCCCCCCC[Si](C)(C)CCC(=O)NC(Cc1ccc(C)cc1)c1ccccc1 (stereo not drawn)	·	0.07
O=C(O)CSc1nc2ccc(Br)cc2[nH]1	0.73	1.34
Cn1c(=O)n(CC(=O)N2CCCC2)c(=O)c2cc(S(=O)(=O)NCCC3=CCCCC3)ccc21	1.28	·
CC1(C)C(=O)[C@@H]2C[C@@]3(O)C4=CC(=O)O[C@@H](c5ccoc5)[C@]4(C)CCC3C(C)(C2=O)[C@H]1CC(=O)O (stereo partly drawn)	0.23	·
Cc1cc(C)nc(SCC(=O)c2c(C)[nH]c3ccccc23)n1	0.36	-0.74
CC(C)CCN(CCS(=O)(=O)N1CCNCC1)S(=O)(=O)c1ccc(Br)cc1	2.26	·
Cc1cc2[nH]c(=O)c(=O)[nH]c2cc1S(=O)(=O)NCc1ccc2c(c1)OCO2	2.29	·
COc1ccc(-c2nc(NCc3ccccc3)c3ccccc3n2)cc1	0.26	·
